Compound activity from PubChem BioAssay.
Beta apoptosis = blocks beta cell apoptosis; 300,000 tested, 0.8% active; AID 435005; protection from apoptosis, % (no concentration beside the values); INS-1E cytokine-induced death, ATP luminescence, 48 h; percent of positive-control rescue, neutral wells zero;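 active = all replicates at 75% or more, or half of them and the mean; inconclusive = half reach 75% but not the mean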;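 note: 0% = cytokine-treated negative control wells and 100% = positive control rescue; higher means more ATP so stronger rescue from cytokine killing; wells of about 40 µL received 100 nL stock; the first replicate is given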
Calb FLC = affects C. albicans growth with fluconazole | C. albicans CaCi-2 (fluconazole-resistant clinical isolate) + fluconazole, Alamar Blue growth, 48 h | growth inhibition, % (concentration not given with the values) | 300,000 tested, 0.57% active | AID 1979;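 active = most replicates above 75%; inconclusive = exactly half above 75%; inactive = most below 75%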;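 note: all wells also contain fluconazole at 8 µg/ml as a sub-toxic cotreatment; 0% = median of DMSO wells and 100% = median of geldanamycin control wells; wells of about 8 µL received 7.5 nL stock; the first replicate is given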
T cruzi inh = T. cruzi replication inhibition | T. cruzi beta-gal in NIH3T3, luminescence, 90 h | inhibition, % (test concentration not listed) | 300,000 tested, 1.4% active | AID 1885;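 active = mean inhibition across valid replicates above about 55%, limit read from the data; inconclusive = mean below that limit but half or more replicates reach it; inactive = mean below it, under half of replicates reach it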;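 note: signal also drops with host cell toxicity which is not excluded here; 0% = plate median of DMSO wells and 100% = zero luminescence signal; higher percent means less beta-gal luminescence so fewer parasites; stock transfer was 50 nL into about 50 µL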
UCH37 inh = human UCH37 deubiquitinating enzyme inhibition; Q9Y5K5; 330,000 tested, 0.33% active; purified proteasome/UCH37, Ub-AMC cleavage fluorescence; inhibition, % (test concentration not listed);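 active = mean of two replicates above 20%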;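 note: 0% = compound-free wells with enzyme and 100% = wells lacking proteasome; stock transfer was 100 nL into about 20 µL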
Target sequence (Q9Y5K5 whole entry, looked up): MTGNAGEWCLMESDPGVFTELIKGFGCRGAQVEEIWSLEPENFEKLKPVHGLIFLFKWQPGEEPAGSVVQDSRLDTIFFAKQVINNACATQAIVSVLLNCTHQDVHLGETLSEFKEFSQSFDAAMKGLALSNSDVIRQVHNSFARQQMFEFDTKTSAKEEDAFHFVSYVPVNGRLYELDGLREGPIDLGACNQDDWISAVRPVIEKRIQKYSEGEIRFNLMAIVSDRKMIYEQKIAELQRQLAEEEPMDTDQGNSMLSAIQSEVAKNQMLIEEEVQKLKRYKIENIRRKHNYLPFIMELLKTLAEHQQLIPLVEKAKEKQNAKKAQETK
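Material: human UCH37 enzyme supplied as purified proteasome complex. Measure: % inhibition of Ub-AMC cleavage fluorescence. Medium: pH 7.4 Tris-HCl (50 mM) with ovalbumin, ATP-MgCl2, DTT. Times: 30 min preincubation with enzyme, 25 min cleavage at room temperature. Detection: AMC fluorescence intensity at 355/460 nm.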
Bfl-1 A1 inh = inhibitors of the anti-apoptotic protein A1, read as caspase activation; caspase activation, % (test concentration not listed); 330,000 tested, 0.066% active; MEF A1-2A-BIM cells, Caspase-Glo 3/7 luminescence, 3 h; percent of clofoctol response, vehicle zero;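 active = over half of replicate activation scores above 10%, or exactly half above 10 with the replicate mean above 10; inconclusive = replicate mean below 10 yet half the replicates above 10; inactive = over half of replicates below 10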;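 note: wells of about 30 µL received 50 nL stock; many hits fall short of the cut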
LANA-H2A inh = blocks KSHV LANA binding to histone H2A/H2B | Q9QR71 | 320,000 tested, 0.6% active | inhibition, % (no concentration beside the values) | cell-free LANA-H2A/H2B peptide, fluorescence polarization; in the data active = inhibition mostly above about 10%, no sharp cut-off; inactive = mostly below about 6.7%;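 note: stock transfer was 7.5 nL into about 10 µL; 0% = median of vehicle wells and 100% = median of positive control wells; one replicate is shown; the record names a cut of 25% in any replicate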
RanGTP-Impb inh = disruptors of Ran-importin-beta complex formation – biochemical, FRET, CFP-Ran, YFP-importin-beta, homogeneous, primary screen. 300,000 tested, 1.1% active. cell-free CFP-Ran/YFP-importin-beta FRET ratio. inhibition, % (test concentration not listed). AID 2216;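 active = most replicates above 15%; inconclusive = exactly half above 15%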;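 note: 0% = DMSO wells and 100% = Ran loaded with GDP instead of GTP; wells of about 40 µL received 100 nL stock; the first replicate is given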
B2AR ag = agonists of human beta-2 adrenergic receptor inducing internalization; response, % (concentration not given with the values); 340,000 tested, 0.43% active; AID 504454; Am2.2-beta2AR cells, FAP receptor internalization, flow cytometry; reference of the scale not given here;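 active = response above a set limit, near 3 SD of response in nonfluorescent compounds, cut at about 42% in these data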;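 note: stock transfer was 100 nL into about 11 µL; a reference agonist was the positive control; negative values mostly stem from fluorescent compounds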
Target sequence (P07550 whole entry, looked up): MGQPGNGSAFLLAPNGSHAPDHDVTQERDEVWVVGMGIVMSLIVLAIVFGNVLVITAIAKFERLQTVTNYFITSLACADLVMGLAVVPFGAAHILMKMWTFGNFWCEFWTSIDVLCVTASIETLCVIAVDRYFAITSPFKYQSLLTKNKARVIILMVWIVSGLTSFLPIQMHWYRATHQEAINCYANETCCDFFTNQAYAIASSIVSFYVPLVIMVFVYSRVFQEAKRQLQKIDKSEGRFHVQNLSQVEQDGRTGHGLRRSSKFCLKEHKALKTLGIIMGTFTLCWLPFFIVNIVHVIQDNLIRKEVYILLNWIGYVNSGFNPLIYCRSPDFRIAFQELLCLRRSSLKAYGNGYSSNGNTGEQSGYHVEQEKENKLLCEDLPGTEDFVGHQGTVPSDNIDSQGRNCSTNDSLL
Active calls of the source: *; ? = inconclusive; . = not tested or not shown.

SMILES	Beta apoptosis	Calb FLC	T cruzi inh	UCH37 inh	Bfl-1 A1 inh	LANA-H2A inh	RanGTP-Impb inh	B2AR ag
CCC1CCCCN1CCCNC(=O)C1CCCN(S(=O)(=O)N2CC(C)CC(C)C2)C1 (stereo not given)	-3	-6	19	2.0	-1.1	-7.7	-1.5	-4
O=c1[nH]cc(S(=O)(=O)NCc2ccccc2)c(=O)[nH]1	-9	-1	-8	3.9	-1.3	1.2	-4.1	-10
Cc1ccc(OCC(=O)NCc2ccc3c(c2)OCO3)c([N+](=O)[O-])n1	0	-5	7	5.0	0.1	5.9	4.1	-9
COc1ccc(NC(C)=[N+](C)CCNS(=O)(=O)c2ccc(Cl)cc2)cc1	-1	-13	49	5.5	-1.2	1.9	-4.0	2
COc1ccc(NC(=O)CSc2nc3ccccc3n2-c2ccccc2)c([N+](=O)[O-])c1	2	7	27	0.0	-0.3	-5.7	-0.2	-12
COc1ccc(S(=O)(=O)N2CCCCCC2)cc1NC(=O)CN1C(=O)NC(C)(c2ccccc2)C1=O (stereo not given)	2	-4	17	-0.7	0.1	-0.4	2.8	3
CCc1c(C)nc(SCC(=O)Nc2c(C)n(C)n(-c3ccccc3)c2=O)[nH]c1=O	-1	0	-2	3.5	0.2	3.2	-2.1	10
COc1ccc(S(=O)(=O)N2CCC3(CC2)OCCN3S(=O)(=O)c2cccs2)cc1	4	1	14	.	-0.5	4.4	0.4	-7
CN(CC(=O)N1CCc2ccccc21)S(=O)(=O)c1cccs1	-3	27	-8	6.0	0.0	-3.8	1.8	-1
COCC(=O)Nc1c(C(=O)Nc2ccc3c(c2)OCO3)oc2ccccc12	-3	18	14	-1.8	0.8	3.9	2.8	4
O=C(NCCCN1CCCC1=O)c1cccc(C(F)(F)F)c1	5	19	-35	0.6	0.7	-1.6	4.2	-1
O=C(CCC(=O)NC1CCCCC1)Nc1cccnc1	2	-2	-1	3.1	0.3	-3.5	0.6	-9
COc1cccc(NC(=O)COC(=O)C2C3CC4OC(=O)C2C4C3)c1 (stereo not given)	-1	-18	1	2.8	-2.4	-6.7	4.7	0
Cc1ccc(CN2CCN(C(=O)c3ccco3)CC2)cc1	0	-8	-10	0.7	-0.2	-0.7	0.9	1
Cc1noc(C)c1NC(=O)N(C)C[C@H]1Oc2ccc(NC(=O)Cn3cnnn3)cc2C(=O)N([C@H](C)CO)C[C@@H]1C	-12	.	.	4.9	0.1	-1.7	.	-1
COc1ccc(-c2nnc(NC(=O)C3CC3)o2)cc1	1	2	17	0.8	0.2	-4.6	-1.0	-17
Cc1nc2nc[nH]n2c(=O)c1NS(=O)(=O)c1ccc(C(C)(C)C)cc1	-3	-4	-4	2.0	-0.4	-2.4	?	2
CSc1nc2ccc(S(=O)(=O)N3CCCC3)cc2s1	-1	4	-6	2.8	0.1	0.0	?	-9
Cc1ccc(NC(=O)CSc2nnc3ccc(-c4ccncc4)nn23)cc1	.	1	2	4.0	.	.	0.6	5
CCC(C)n1cnc2c(c1=O)c1nc3ccccc3nc1n2Cc1ccccc1OC (stereo not given)	7	9	34	-0.3	0.0	-11	?	4
Cc1ccc2c(c1)N(Cc1ccccn1)C(=O)C(C)O2 (stereo not given)	-2	-2	1	2.4	0.1	2.8	2.5	1
COc1ccc(C(=O)COC(=O)c2ccccn2)cc1OC	-2	.	.	-1.1	-0.7	0.4	.	0
CC(C)n1cc(/C=N/Nc2ccc(C(=O)O)cc2)c2ccccc21	-7	-2	4	.	-8.2	3.5	1.7	0
CCOC(=O)CSc1nnc(Cc2cc(=O)[nH]c(=O)[nH]2)n1-c1cccc(OC)c1	3	-22	-6	4.0	0.5	-0.6	-0.2	4
CC(Sc1nc(-c2ccccc2)cc(C(F)(F)F)n1)C(=O)Nc1sc2c(c1C(N)=O)CCC2 (stereo not given)	4	-3	5	1.8	-0.7	4.0	1.9	-5
COc1ccc(-c2nnn(-c3ccc(Cl)cc3Cl)c2N)cc1	-11	-11	3	4.1	-0.6	-4.2	-3.8	4
C=C1CCN([C@@H](CC(C)C)C(=O)NCc2ccc(Cl)cc2)S(=O)(=O)c2ccccc21	10	7	30	-0.1	-2.2	-0.4	0.9	7
O=C(NCCN1CCN(C(=O)c2ccc(Br)cc2)CC1)c1ccc(Br)cc1	7	3	4	1.5	0.8	0.8	1.6	-5
CC(Sc1nc2c(c(=O)n(C)c(=O)n2C)n1Cc1cc2c(cc1Cl)OCO2)C(=O)O (stereo not given)	-2	2	-3	0.9	-0.6	5.2	-2.3	2
CCOc1ccc(OCc2cccc(C(=O)Nc3ccc(CN4CCCCC4)cc3)c2)cc1	19	-1	26	1.7	-1.0	2.4	4.5	17
N#CC1=C(N)SC(N)=C(C#N)C1CCC1CCCCC1	32	20	-15	.	0.0	-15	51*	.
CCOC(=O)CN1CC23C=CC(O2)C(C(=O)NCc2ccc(C)cc2)C3C1=O (stereo not given)	1	-1	1	0.6	-0.1	3.7	-5.1	10
CCOc1ccc2[nH]c3c(NCCO)ncnc3c2c1	-4	0	4	-268	1.1	-5.1	3.3	9
CN(C)C=Nc1ncc2c3ccccc3n(Cc3ccccc3)c2c1C#N	1	-7	10	-124	0.3	-2.5	-1.4	-8
CSc1cccc(NC(=S)N2CCCN(Cc3ccc(F)cc3)C2)c1	-5	5	15	2.6	1.4	0.4	2.1	12
Cc1sc(NC(=O)c2ccccc2F)c(CN2CCCCC2C)c1C (stereo not given)	0	-2	6	2.1	0.0	-4.1	-2.3	15
COCCCn1c(Cc2csc(Nc3ccccc3)n2)nnc1SCC(N)=O	-3	5	2	1.0	0.7	1.7	1.0	-5
CN(C)c1ccc(NC(=O)CSc2nnc(-c3cccs3)n2Cc2ccco2)cc1	1	-4	11	0.6	-0.4	2.4	3.2	0
O=C(Cc1ccccc1)NNC(=O)C1CCN(c2ncccn2)CC1	-2	-1	-17	-5.8	?	6.3	-5.6	-5
Cc1cccc(N(C)S(=O)(=O)c2ccc3c(c2)NC(=O)CC(=O)N3)c1	-5	14	-4	1.9	0.4	0.0	-0.5	-1
O=C(CSc1ncnc2c1nnn2Cc1ccccc1F)NCC1CCCO1 (stereo not given)	-8	1	-17	12	-0.4	-3.3	0.0	3
CCn1nc(C)c(C2C(C#N)=C(N)Oc3n[nH]c(C)c32)c1C (stereo not given)	-1	-1	5	-4.0	0.8	1.3	-2.8	0
CCOCc1c(C(=O)Nc2ccc3nc(N4CCOCC4)sc3c2)oc2ccccc12	23	.	.	-12	-0.4	1.2	.	19
Cc1ccc(CNC(=O)c2cccc(-n3cnnn3)c2)cc1	2	-7	-8	3.7	0.7	1.1	7.4	4
O=C(N/N=C/c1cccc(OC2CSC2)c1)c1ccccc1O	-4	-3	-9	.	-0.1	3.7	3.7	-18
Cc1ccc(NC(=O)c2cccc(S(=O)(=O)N3CCCc4ccccc43)c2)nc1	-12	.	.	3.2	-0.3	0.2	.	1
O=C(COC(=O)Cc1ccc(Br)cc1)NC1CCCC1	-4	.	.	2.6	0.2	-4.3	.	-7
CCn1c(SCC(=O)NCc2cccs2)nnc1-c1cccs1	-2	31	-10	-0.2	0.0	1.7	-5.1	-11
CCOC(=O)CSc1nc(C(C)(C)C)cc(C(F)(F)F)c1C#N	-3	-7	4	3.1	0.2	1.4	1.3	2
C/C(=N\N1CCN(c2ccccc2)CC1)c1ccncc1	-1	2	-1	.	-0.3	-2.9	-0.4	13
Going on with the list:
SMILES	Beta apoptosis	Calb FLC	T cruzi inh	UCH37 inh	Bfl-1 A1 inh	LANA-H2A inh	RanGTP-Impb inh	B2AR ag
COc1cccc(NC(=O)CN(C)C(=O)CSc2ccc3c(c2)OCCO3)c1	3	.	.	3.8	1.7	3.1	.	6
O=C(/C=C/c1ccc(Cl)cc1)N(c1ccccn1)C1CCCCC1	0	18	1	2.7	0.1	-3.8	0.0	2
Cc1nc2c(-c3ccc(F)cc3)c(C)nn2c(C)c1CCC(=O)NC(C)CCc1ccco1 (stereo not given)	5	5	27	0.8	0.0	5.6	1.8	-2
CC(C)=CCN1CCNC(=O)C1CC(=O)NCc1nc(C)c(C)s1 (stereo not given)	-6	18	-4	2.3	1.5	-4.7	6.8	6
CCCN1C(=O)c2cc(C(=O)NC3CCCCCC3)ccc2C1O (stereo not given)	-4	0	-11	7.9	-2.5	0.1	3.8	0
COc1ccc(Nc2c3ccccc3nc3ccccc23)cc1	71	12	40	-0.3	0.1	-4.0	67*	-24
Cc1c(C(=O)Nc2ccccc2)sc2ncn(CC(=O)N3CCCCC3)c(=O)c12	2	-4	0	-0.2	0.2	-9.2	0.4	-16
CCOC(=O)c1c(NC(=S)Nc2ccc(C)cc2)sc2c1CCC2	-3	6	9	-4.1	0.0	3.4	1.3	-8
COc1ccc(Br)cc1/C=C/C(=O)NCC(=O)O	-4	-5	-7	-11	0.1	0.1	0.8	-1
O=C(/C=C/c1ccco1)NC(=S)Nc1ccc(C(=O)O)cc1	.	6	3	10	0.8	-1.3	1.2	-1

Some values from the results shown.
LANA-H2A inh, `CCCN1C(=O)c2cc(C(=O)NC3CCCCCC3)ccc2C1O` (stereo not given) = 0.1
T cruzi inh, `COc1ccc(Nc2c3ccccc3nc3ccccc23)cc1` = 40

Following part:
SMILES	Beta apoptosis	Calb FLC	T cruzi inh	UCH37 inh	Bfl-1 A1 inh	LANA-H2A inh	RanGTP-Impb inh	B2AR ag
Cn1c2ccccc2c(=O)n2c(=O)c3ccccc3cc12	0	?	4	.	-2.5	-7.0	11	.
Cc1ccc(-c2nn3c(C)nnc3c3ccccc23)cc1S(=O)(=O)N1CCN(CCO)CC1	10	5	7	3.0	1.0	1.8	-2.8	-5
O=C(CN1CCCc2ccccc21)NC(=O)NCc1ccco1	4	?	-2	2.4	-0.5	-0.5	-4.5	3
O=[N+]([O-])c1ccc(C2(O)CN(c3ccccc3)C3=[N+]2CCS3)cc1 (stereo not given)	2	14	12	5.6	0.9	-3.5	4.0	-16
CC(NC(=O)c1cc(S(=O)(=O)N2CCOCC2)ccc1N1CCCC1)c1ccc(Cl)c(Cl)c1 (stereo not given)	.	9	23	-15	-0.3	-0.8	3.0	9
CC1=C(C(=O)OCC(C)C)C(c2cccs2)NC(=S)N1 (stereo not given)	3	1	11	0.5	-0.4	0.0	2.3	0
COc1ccc(CCN(C(=O)C(F)(F)F)C(C(=O)NC2CCCC2)c2cccs2)cc1 (stereo not given)	0	-1	15	1.8	-0.7	-4.7	-2.4	-4
Cc1ccc(SCc2ccc(C(=O)N3CCCC3)cc2)cc1	1	-19	2	4.1	-0.8	-0.2	?	-2
CCSc1nnc(NC(=O)CSc2nc(CC)nc3c2c(=O)n(C)c(=O)n3C)s1	-3	-1	-3	-0.9	-0.4	1.8	?	-3
Cc1cc(NC(=O)Nc2ccc(Cl)cc2)no1	.	-11	-6	5.8	-1.9	8.4	-0.9	-5
COc1ccc(/C=[N+](\[O-])C2N(c3ccccc3)C(=S)SC2(C)C)cc1OC (stereo not given)	0	-6	8	7.9	-1.7	5.5	-1.2	3
Cc1ccc(-c2cc(-c3ccc(Cl)cc3)c(C#N)c(N)n2)o1	-19	17	-12	-109	0.2	3.7	16*	-6
Cc1cc2ccc3ccccc3c2cc1CN(C)C	2	-1	34	.	0.1	10	4.0	5
